# T cruzi repl – T. cruzi replication inhibition; AID 1885; 300,000 tested, 1.4% active; T. cruzi beta-gal in NIH3T3, luminescence, 90 h; inhibition, % (concentration not given with the values);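 active = mean inhibition across valid replicates above about 55%, limit read from the data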;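 also: signal also drops with host cell toxicity which is not excluded here; 0% = plate median of DMSO wells and 100% = zero luminescence signal; higher percent means less beta-gal luminescence so fewer parasites; stock transfer was 50 nL into about 50 µL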
# Beta cell apopt – beta cell apoptosis inhibition; protection from apoptosis, % (test concentration not listed); 300,000 tested, 0.8% active; INS-1E cytokine-induced death, ATP luminescence, 48 h; percent of positive-control rescue, neutral wells zero; AID 435005;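 active = all replicates at 75% or more, or half of them and the mean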;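 also: 0% = cytokine-treated negative control wells and 100% = positive control rescue; higher means more ATP so stronger rescue from cytokine killing; wells of about 40 µL received 100 nL stock; the first replicate is given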
# A1 inh – inhibitors of the anti-apoptotic protein A1, read as caspase activation; MEF A1-2A-BIM cells, Caspase-Glo 3/7 luminescence, 3 h; percent of clofoctol response, vehicle zero; caspase activation, % (test concentration not listed); 330,000 tested, 0.066% active;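 active = over half of replicate activation scores above 10%, or exactly half above 10 with the replicate mean above 10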;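 also: wells of about 30 µL received 50 nL stock; many hits fall short of the cut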
# An asterisk follows results filed as active.
SMILES,T cruzi repl,Beta cell apopt,A1 inh
CN(C)CCCCNCCCNC(=O)/C=N\O,1.7,-10.1,0.9
CCCC12CN3CCN(CC(C3)/C1=N\NC(=O)c1ccc(C(C)(C)C)cc1)C2,-11.3,8.1,0.4
CC(C)C(NC(=O)C12CC3CC(CC(C3)C1)C2)C(=O)NC1=NCCS1 (centres undefined),13.0,0.3,0.7
COc1cccc(/C=N/N2C(=O)NC3(CCCCC3)C2=O)c1O,-10.7,1.6,-1.9
COc1ccc(/C=C/C=N/NC(=O)COc2ccc(OC)cc2)cc1,2.1,-5.9,-0.8
N/C(Cc1ccc([N+](=O)[O-])cc1)=N\OC(=O)c1ccc([N+](=O)[O-])cc1,28.1,3.0,0.6
CNC(=S)N/N=C/c1cn(CCOc2cccc(OC)c2)c2ccccc12,35.6,10.2,-0.5
C/C(=N\NC(=S)NC(C)C)c1cccc([N+](=O)[O-])c1,-5.0,5.0,-0.4
Oc1c(Br)cc(/C=N/n2c(-c3ccccc3)n[nH]c2=S)c(O)c1Br,0.3,1.9,1.1
O=C(Nc1c(C(=O)c2ccccc2)oc2ccccc12)c1cc(-c2ccccc2O)n[nH]1,15.4,3.0,-0.1
CC1(C)Cc2nc3sc(C(=O)O)c(N)c3cc2CS1,-7.8,-6.9,0.0
O=C1CC(c2ccc(Cl)c([N+](=O)[O-])c2)c2ccc3ccccc3c2N1 (centres undefined),46.0,18.1,-0.1
Cc1cc(C(=O)N/N=C/c2cccc([N+](=O)[O-])c2)c(C)n1-c1ccccc1,11.1,-4.0,0.0
CCC/C(=N\NC(=O)CNC(=O)/C=C/c1ccco1)c1ccccc1,-19.6,-5.0,0.7
CC(=O)OC[C@H]1O[C@@H](O/N=C/[C@@H](C)[C@H](OCc2ccccc2)C(C)C)[C@H](OC(C)=O)[C@@H](OC(C)=O)[C@@H]1OC(C)=O,9.6,-4.2,-0.2
COc1ccccc1NS(=O)(=O)c1cccc(C(=O)N/N=C/c2cn(-c3ccccc3)nc2-c2ccccc2)c1,12.5,12.5,0.6
COc1ccc(-c2cc3nnc(-c4ccccc4)nc3s2)cc1,-21.9,14.2,-6.7
O=C(N/N=C/c1ccccc1OCC(=O)N1CCCC1)C(=O)Nc1ccccc1F,-3.2,-3.9,-3.5
C/C(=N\NC(=O)c1ccc(C)cc1)C1C(=O)c2ccccc2C1=O,-0.2,15.9,-8.0
O=C(N/N=C/c1cccs1)c1n[nH]c2c1CCC2,-24.6,10.3,-7.1

# 16 entries from above, set out differently:
structure	T cruzi repl	Beta cell apopt	A1 inh
COc1cccc(/C=N/N2C(=O)NC3(CCCCC3)C2=O)c1O	-10.7	1.6	-1.9
COc1ccc(/C=C/C=N/NC(=O)COc2ccc(OC)cc2)cc1	2.1	-5.9	-0.8
N/C(Cc1ccc([N+](=O)[O-])cc1)=N\OC(=O)c1ccc([N+](=O)[O-])cc1	28.1	3.0	0.6
CNC(=S)N/N=C/c1cn(CCOc2cccc(OC)c2)c2ccccc12	35.6	10.2	-0.5
C/C(=N\NC(=S)NC(C)C)c1cccc([N+](=O)[O-])c1	-5.0	5.0	-0.4
Oc1c(Br)cc(/C=N/n2c(-c3ccccc3)n[nH]c2=S)c(O)c1Br	0.3	1.9	1.1
O=C(Nc1c(C(=O)c2ccccc2)oc2ccccc12)c1cc(-c2ccccc2O)n[nH]1	15.4	3.0	-0.1
CC1(C)Cc2nc3sc(C(=O)O)c(N)c3cc2CS1	-7.8	-6.9	0.0
O=C1CC(c2ccc(Cl)c([N+](=O)[O-])c2)c2ccc3ccccc3c2N1 (centres undefined)	46.0	18.1	-0.1
Cc1cc(C(=O)N/N=C/c2cccc([N+](=O)[O-])c2)c(C)n1-c1ccccc1	11.1	-4.0	0.0
CCC/C(=N\NC(=O)CNC(=O)/C=C/c1ccco1)c1ccccc1	-19.6	-5.0	0.7
CC(=O)OC[C@H]1O[C@@H](O/N=C/[C@@H](C)[C@H](OCc2ccccc2)C(C)C)[C@H](OC(C)=O)[C@@H](OC(C)=O)[C@@H]1OC(C)=O	9.6	-4.2	-0.2
COc1ccccc1NS(=O)(=O)c1cccc(C(=O)N/N=C/c2cn(-c3ccccc3)nc2-c2ccccc2)c1	12.5	12.5	0.6
COc1ccc(-c2cc3nnc(-c4ccccc4)nc3s2)cc1	-21.9	14.2	-6.7
O=C(N/N=C/c1ccccc1OCC(=O)N1CCCC1)C(=O)Nc1ccccc1F	-3.2	-3.9	-3.5
C/C(=N\NC(=O)c1ccc(C)cc1)C1C(=O)c2ccccc2C1=O	-0.2	15.9	-8.0

# (listing goes on)
SMILES,T cruzi repl,Beta cell apopt,A1 inh
CCn1c(O)c(/C=N/N=C2CCCC2)c2ccc(C3=NNC(=O)CC3)cc21,0.6,0.5,0.6
CCOc1cc(/C=N/NC(=O)CN2CCCCC2)ccc1OCc1ccc(Cl)cc1,-8.7,-3.3,0.0
CC(C)c1ccc(C(=O)N/N=C/c2cccc(Cl)c2Cl)cc1,13.0,-2.6,1.2
COc1ccc(C2=CC3=CC(=O)C(C)(O)C(=O)C3=CO2)cc1 (centres undefined),-18.2,-5.9,-0.1
CC(/C=C/c1ccccc1F)=N\NC(=O)C(C)C,-9.4,-2.4,-0.9
O=c1c2cc(-c3ccccc3)sc2ncn1/N=C/c1ccco1,1.1,-7.5,-4.8
CCN(CC)c1ccc(/C=N/NC(=S)NCc2ccc(OC)cc2)cc1,34.0,6.0,-0.9
C/C(=N\NC(=O)Cc1csc(N2CCOCC2)n1)c1ccccc1,14.8,0.6,-0.3
Cc1ccc(/C=N/c2sc3c(c2C#N)CCCCC3)o1,-0.8,-8.2,-0.1
CCOc1cc(/C=N/NC(=O)c2ccncc2)ccc1OS(C)(=O)=O,-30.8,-3.1,-0.5
Fc1ccccc1COc1ccc(/C=N/n2cnnc2)cc1,32.7,9.6,-1.6
FC(F)(F)c1cccc(NC(=S)NNC(=S)Nc2ccc(Cl)cc2)c1,56.4*,42.3,-0.8
C/C(=N\NC(=O)C(=O)Nc1cccc(C(F)(F)F)c1)c1ccc(Cl)s1,-23.6,9.1,0.4
C(=N\Nc1nc(N2CCCCCC2)nc(N2CCCCCC2)n1)/c1ccccc1,43.9,9.6,1.9
CCCCn1c(=O)c(C(=O)N/N=C/c2ccc(F)cc2)c(O)c2ccccc21,-3.9,3.6,1.2
CCCC/C(C)=N/NC(=O)Nc1ccccc1,-13.5,-1.1,0.9
O=C(CN(CCc1ccccc1)S(=O)(=O)c1ccc(Br)cc1)N/N=C/c1ccc2c(c1)OCO2,10.8,-3.3,0.1
CC(/C=N/n1c(-c2ccco2)n[nH]c1=S)=C\c1ccccc1,-5.8,-7.8,0.3
COCCNC(=O)CSc1nc2ccccc2c(=O)n1CCCC(=O)NCc1ccccc1,4.5,-4.7,1.3
Cc1ccc(S(=O)(=O)N/N=C/c2ccc(OC3CSC3)cc2)cc1,3.7,-1.2,-2.6
CCCCOc1ccc(CNC(=S)N/N=C/c2ccc(OC)c(OC)c2)cc1,18.5,8.2,-0.7
C#CCOCCOCCOCCNc1nc(N2CCN(C(=O)[C@H]([C@@H](C)CC)n3cc([C@@H](N)Cc4ccc(O)cc4)nn3)CC2)nc(N2CCN(C(=O)[C@H](Cc3cc4ccccc4[nH]3)n3cc([C@@H](N)C(C)CC)nn3)CC2)n1 (some centres undefined),15.6,8.7,-0.7
COc1ccc(/C(=N/O)C(C)(C)NO)cc1,1.2,-4.4,0.3
CCOC(=O)N/N=C/c1ccccc1F,-12.2,-5.4,-3.0
CCNC(=S)N/N=C(\C)c1ccc2c(c1)OCCO2,-38.0,5.2,1.3
Fc1c(F)c(F)c(N/N=C/c2c[nH]c3ccccc23)c(F)c1F,-17.0,2.6,1.2
CC1(C)CC(=O)C2=C(C1)Nc1ccccc1N=C2,20.6,-2.9,0.7
COc1ccccc1-c1cc(C(=O)N/N=C/C=C/c2ccccc2[N+](=O)[O-])c2ccccc2n1,1.9,8.1,0.9
N#CC1=C(N)Oc2n[nH]c(-c3ccc(F)cc3)c2C1c1ccncc1 (centres undefined),-3.7,-4.0,-1.1
Cc1cccc(NC(=O)CSc2nnc(-c3ccco3)c(-c3ccco3)n2)c1C,19.4,-10.8,-0.2
CCn1c2ccc(C)cc2c2nnc(NN)nc21,23.6,4.2,3.0
COc1ccc(CCn2c(NN=C3CCCCC3)nc3c2c(=O)[nH]c(=O)n3C)cc1,0.4,20.7,0.4
Cc1ccc(S(=O)(=O)N(CC(=O)N/N=C/c2cccc3c2OCCO3)c2ccccc2F)cc1,7.7,-2.9,0.6
COc1ccc(CCNC(=O)C2CCCCC2C(=O)O)cc1OC (centres undefined),2.9,-4.8,0.4
Cn1c(N/N=C/c2cccs2)cc(=O)n(C)c1=O,2.5,0.1,-0.2
COc1cccc(-c2cc(C(F)(F)F)c3c(N)c(C#N)sc3n2)c1,1.3,10.4,-0.7
COc1cccc(/C=N/NC(=O)CC(=O)NCCc2ccc(OC)c(OC)c2)c1,-11.8,0.6,-0.5
CCOC(=O)c1c(C)[nH]c(C(=O)N/N=C/c2ccc(Br)cc2)c1C,-5.4,26.0,1.8
COCCCNC(=S)NNC(=O)c1cccnc1,4.9,-5.9,-0.1
CCC(C)OC(=O)C(C)Oc1ccc(-c2ccccc2)cc1 (centres undefined),0.3,-1.5,0.6
CSc1nncn1/N=C/c1ccc2c(c1)OCO2,-21.8,-4.4,-0.1
COC(=O)c1ccccc1NC(=O)CN1C(=O)C2CCCN2c2ncc(Cl)cc21 (centres undefined),16.7,-15.0,-0.1
CCOc1cc(/C=N/N=C(\N)c2nonc2N)cc(Br)c1OCc1cccc2ccccc12,8.2,24.3,6.4*
CC(SCc1ccccc1)C(=O)N/N=C/c1cc2c(cc1Br)OCO2 (centres undefined),-5.5,-11.5,-1.2
C#CCOc1c(Br)cc(/C=N/O)cc1OCC,-8.7,-6.9,0.6
Cn1c(N/N=C2\CCCc3ccccc32)nc2c1c(=O)n(Cc1ccccc1)c(=O)n2C,-21.6,-1.3,0.7
COc1ccc(-c2cnnc(N/N=C/c3ccc(OC)c(OC)c3)n2)cc1,-15.2,7.2,-0.6
Nc1nnnn1/N=C/c1cccc(O)c1,-5.5,-5.7,-0.1
Cc1nn(-c2ccccc2)c(Cl)c1/C=N/NS(=O)(=O)c1ccc(Br)cc1,-2.6,5.8,0.9
CCC(C)c1ccc(O)c(/C=N/O)c1 (centres undefined),15.6,-0.6,-0.1
CO/N=C/c1ccc(N2CCN(C(=O)c3ccc(Cl)cc3Cl)CC2)c([N+](=O)[O-])c1,20.3,49.9,0.5
C=CCc1c(C)nc(C)nc1N/N=C/c1ccc(N(C)C)cc1,-26.4,99.8*,1.9
Cc1ccc(CN2CCc3c(OCC(=O)Nc4cccc(C)c4C)cccc3C2=O)cc1,-0.2,-16.8,1.3
COc1ccc(/C=C2\SC(=S)N(NC(=O)c3ccncc3)C2=O)cc1OC,3.7,3.6,0.1
Cc1cc(C)nc(NS(=O)(=O)c2ccc(N/C=C/C(=O)c3ccc(Cl)c(Cl)c3)cc2)n1,1.7,-8.6,-0.5
Cc1cccc(C)c1OCC(=O)N/N=C/c1ccc2c(c1)OCO2,-15.1,9.7,-0.2
O=C(Oc1ccc(/C=N/NC(=O)c2ccccc2O)cc1)c1ccccc1,-15.3,-4.1,1.0
O=S(=O)(c1ccc(NC(=S)N/N=C/c2ccc(N3CCOCC3)cc2)cc1)N1CCOCC1,17.1,9.5,0.4
NC(=S)N/N=C/c1coc2cc(Cl)ccc2c1=O,-10.9,0.8,0.3
O=C(Nc1nnc(SCc2c(Cl)cccc2Cl)s1)c1ccc2ncsc2c1,5.0,-1.8,-0.6

# Next results follow.
SMILES,T cruzi repl,Beta cell apopt,A1 inh
Cc1ccc(S(=O)(=O)/N=C(\Sc2ccccc2)c2ccccc2)cc1,3.3,-8.3,0.3
CCOC(=O)CNc1ncc([N+](=O)[O-])cc1C#N,-9.9,-0.7,1.1
COc1ccc2c(c1)nc(N)n2Cc1ccccc1,5.8,1.6,0.2
CC(Sc1nnc(CNc2cccc3ccccc23)n1-c1ccccc1)C(=O)N/N=C/c1ccco1 (centres undefined),15.2,-15.1,-0.7
O=S(=O)(O/N=C1\CCCc2ccccc21)c1ccc(Cl)cc1,0.7,1.2,-0.6
CC(=O)NC(=S)c1c(N)n(Cc2ccccc2)c(=O)n(C)c1=O,11.8,-11.5,0.6
O=S(=O)(/N=S1/CC=CCN1S(=O)(=O)c1ccccc1)c1ccccc1 (centres undefined),-3.1,3.0,-0.4
Cc1ccc(/C=N\NC(=O)Cn2nnc3ccccc32)o1,-8.4,0.3,-0.1
COc1ccc(/C=N/NC(=O)CN(C2=NS(=O)(=O)c3ccccc32)c2ccccc2)cc1,1.7,-4.2,-0.4
Cc1ccc(NCC(=O)N/N=C/c2cc3ccccc3nc2Cl)cc1,-13.2,5.8,2.1
CCOc1ccc(NC(=S)NC(=O)/C=C/c2ccc(OC)cc2)c([N+](=O)[O-])c1,-9.8,-3.9,0.4
CCCCC1=CC2=CC(=O)C(C)(OC(=O)c3ccco3)C(=O)C2=CO1 (centres undefined),-7.3,-4.9,0.7
COc1cc(/C=N/N=C/c2cc(OC)c(O)c(OC)c2)cc(OC)c1O,-9.2,-0.7,2.1
COc1ccc(/C=C(/NC(=O)c2ccccc2)C(=O)N/N=C/c2ccncc2)c(OC)c1,-42.4,-11.7,0.1
Cc1cccc(CN(CC(=O)N/N=C/c2cccs2)S(=O)(=O)c2ccc(Cl)cc2)c1,28.1,-6.7,-0.1
COCCn1c(SCCCC(=O)c2ccc(Br)cc2)nnc1-c1ccncc1,28.5,25.3,0.8
CCCCC1=CC2=CC(=O)C(C)(O)C(=O)C2=CO1 (centres undefined),-18.5,0.5,1.5

# Screening data: PubChem, Broad Institute

# Not all compounds are listed (hit frequency here may not be typical).
